High-throughput results (PubChem BioAssay)
NS1 function inh: influenza NS1 inhibition. 270,000 tested, 0.4% active. AID 2326. S. cerevisiae slowed by influenza A NS1, growth recovery by OD600. Potency, µM (series often up to 46.1 µM), inactives show at the highest dose activity, positive = more growth; also: actives are rising curves; nearly all actives have a fitted effect of over 50% in size
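Compounds were scored for reversing the slow growth caused by influenza A NS1 in S. cerevisiae, measured by optical density at 600 nm. Assay medium contained 2% galactose at pH 6.0; NS1-free yeast of the same strain were the positive control.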
Cruzain Triton: inhibitors of Trypanosoma cruzi cruzain with detergent; purified cruzain, Z-FR-AMC fluorescence, 0.01% Triton; Potency, µM, without a hit: max response, negative = inhibition, most hits filed as inhibitors; 200,000 tested, 0.43% active; AID 1478; active = well fitted curve in the direction sought with a large enough effect; inconclusive = small, poorly fitted or top-dose-only effect, or another doubt; inactive = no such curve, though single readings can be large; an effect the other way counts as inactive or inconclusive;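 also: plate controls were neutral wells for no effect and buffer without enzyme for full effect; nearly all actives have a fitted effect of over 40% in size; top concentration of the series not given in the record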
Target sequence (P25779 123-467 limits assumed): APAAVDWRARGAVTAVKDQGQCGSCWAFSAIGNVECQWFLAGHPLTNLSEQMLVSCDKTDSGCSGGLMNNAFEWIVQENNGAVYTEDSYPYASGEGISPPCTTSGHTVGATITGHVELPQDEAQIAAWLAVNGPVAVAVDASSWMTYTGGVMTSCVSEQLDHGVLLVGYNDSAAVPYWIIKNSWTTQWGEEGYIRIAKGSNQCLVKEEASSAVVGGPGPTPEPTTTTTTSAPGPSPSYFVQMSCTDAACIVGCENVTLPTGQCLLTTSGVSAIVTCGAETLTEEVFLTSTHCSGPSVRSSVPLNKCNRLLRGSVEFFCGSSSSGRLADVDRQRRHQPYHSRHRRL
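Z-FR-AMC hydrolysis (2 uM substrate) by cruzain (1.5 nM) monitored kinetically at ex 360/em 450 nm after 15 min room-temperature compound exposure; 0.01% Triton X-100, pH 5.5, 5 mM DTT.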
LASV entry inh: inhibitors of Lassa virus binding or cell entry | 300,000 tested, 1.2% active | Potency, µM (top dose mostly 37.9 µM), for inactives: at the top dose activity change, negative = inhibition, most hits filed as inhibitors | Lassa virus pseudotype entry inhibition, cell reporter; control for the full effect not named in the record; active means well fitted inhibition curve with a large enough effect; inconclusive means small, poorly fitted or top-dose-only effect, or effect the other way; inactive means flat fitted curve, though single readings scatter; tested in HEK293 cells; also: % is scaled to controls: 0 for no effect and ±100 for the full control effect; nearly all actives have a fitted effect of over 50% in size; luciferase read-out
Cruzain noTriton: inhibitors of Trypanosoma cruzi cruzain without detergent | purified cruzain, Z-FR-AMC fluorescence, no detergent | Potency, µM, for inactives: max response, negative = inhibition, hits mostly inhibitors | 200,000 tested, 2.3% active | P25779; active = well fitted curve in the direction sought with a large enough effect; inconclusive = small, poorly fitted or top-dose-only effect, or another doubt; inactive = no such curve, though single readings can be large; an effect the other way counts as inactive or inconclusive;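 also: plate controls were enzyme without inhibitor for no effect and buffer without enzyme for full effect; nearly all actives have a fitted effect of over 40% in size; top concentration of the series not given in the record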
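Purified cruzain at 1.5 nM, pre-incubated 15 min with compound at room temperature in 100 mM sodium acetate pH 5.5, 5 mM DTT, 0.00005% Triton X-100. Reaction started with 2 uM Z-FR-AMC; AMC fluorescence increase over 60 s gives rate.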
RE007 growth inh: less growth of the S. pombe RE007 Vpr strain. S. pombe RE007 Vpr strain, BacTiter-Glo ATP luminescence, 24 h; control for the full effect not named in the record. Potency, µM (series often up to 92.2 µM), for inactives: at the highest dose activity change, negative = less growth. 360,000 tested, 0.21% active; active = well fitted falling curve with a large enough effect; inconclusive = small, poorly fitted or top-dose-only effect; inactive = no such curve, though single readings can be large or run the other way;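 also: % is scaled to controls: 0 for no effect and ±100 for the full control effect; nearly all actives have a fitted effect of over 50% in size; the assay follows cell death caused by Vpr and the record does not say whether a fall means rescue or toxicity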
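Fission yeast RE007 carrying one integrated HIV-1 vpr copy, seeded at OD 0.01 in PMG+AL medium with 23 nL pinned compound. Grown 24 h at 30 degrees; viability read by BacTiter-Glo luminescence after 5 min.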
2A StopGo: FMDV 2A StopGo reporter, luciferase signal. AID 1159524. human cells with a luciferase reporter of 2A StopGo recoding; control for the full effect not named in the record. Potency, µM (series often up to 57.9 µM), inactives show top-dose signal change, negative = less light. 410,000 tested, 1.2% active; active = well fitted falling curve with a large enough effect; inconclusive = small, poorly fitted or top-dose-only effect; inactive = no such curve, though single readings can be large or run the other way; tested in HEK293T cells; also: % is scaled to controls: 0 for no effect and ±100 for the full control effect; nearly all actives have a fitted effect of over 45% in size; luciferase light after 4 h
SARS PLpro yeast: inhibitors of SARS-CoV papain-like protease in yeast; AID 485353; S. cerevisiae expressing SARS-CoV PLpro, growth rescue; control for the full effect not named in the record; Potency, µM (series often up to 32.9 µM), without a hit: top-dose activity, positive = growth rescue; 330,000 tested, 0.19% active; also: 0% is about no effect; nearly all actives have a fitted effect of over 55% in size; growth read by luminescence after 48 h
MARV entry inh: inhibitors of Marburg virus binding or cell entry; Potency, µM (top dose mostly 37.8 µM), for the others: at the top dose activity change, negative = inhibition, hits mostly inhibitors; 300,000 tested, 1.8% active; AID 540276; Marburg virus pseudotyped entry inhibition, cell reporter; control for the full effect not named in the record; about a third of the inactives were read at about 46 µM; active = well fitted inhibition curve with a large enough effect; inconclusive = small, poorly fitted or top-dose-only effect, or effect the other way; inactive = flat fitted curve, though single readings scatter; tested in HEK293 cells; about a fifth of its hits are not listed in these tables; also: % is scaled to controls: 0 for no effect and ±100 for the full control effect; luciferase read-out
* marks the source's active call; other numbers are inactive results; u = inconclusive; x = no result given; & = joins results of further samples; [ ] = dose if it differs, or a comment. Unless noted, calls follow the shape of the dose curve; as a rule, active means well fitted rising curve with a large enough effect; inconclusive means small, poorly fitted or top-dose-only effect; inactive means no such curve, though single readings can be large or run the other way. Potency is read from the fitted curve at half-maximal effect.

entry	SMILES	NS1 function inh	Cruzain Triton	LASV entry inh	Cruzain noTriton	RE007 growth inh	2A StopGo	SARS PLpro yeast	MARV entry inh
1	Cc1ccc(-n2cc(CNC(C)Cc3cnccn3)c(-c3cccc(C)c3)n2)cc1 (stereo not given)	-1%	x	u	x	-2%	-9%	0%	u
2	CC1(C)Cc2nc3sc4c(OCc5ccccc5)ncnc4c3cc2CO1	2%	-5.5%	0%	1%	-1%	u	-6%	15%
3	CC(=O)c1sc(-c2ccc(F)cc2F)nc1C	0%	x	x	x	-1%	50%[activator]	1%	x
4	COc1cc(NC(=O)CSc2nc3c(C)ccc(C)c3cc2C)c(C(=O)O)cc1OC	-3%	-6.0%	1%	10%	x	-12%	6%	7%
5	O=C(NCc1ccccn1)c1ccc(NC(=O)c2ccco2)cc1	2%	1.2%	10%	-5%	-1%	11%	19%	0%[46.1 µM]
6	N#Cc1c[nH]n2c(NC3CCCC3)c(-c3cccc(Br)c3)nc12	x	-7.4%	u	u	x	-17%	x	u
7	Nc1cccc2[nH]c(=O)c3ccccc3c12	x	x	4%	x	11%	-12%	x	2%
8	CC(=O)c1c(C(C)=O)c(C)n(Cc2ccc(Cl)cc2)c1C	-10%	5.9%	-21%	-6%	11%	u	-1%	u
9	O=C(CCc1ccccc1)Nc1ncn[nH]1	0%	2.5%	10%	-1%	12%	-16%	-3%	u
10	Cn1cc(S(=O)(=O)N2CCCCCC2)cc1C(=O)NCc1ccc(F)cc1	x	-8.4%	11%[46.1 µM]	-5%	x	-11%	x	x
11	COc1ccc(CSC(=N)N)cc1[N+](=O)[O-]	3%	-11%	u	1%	-2%	-37%	-9%	u
12	Cc1cccnc1Nc1nc(-c2ccc(O)cc2)cs1	4%	-6.4%	-29%	-6%	-5%	x	-24%	u
13	COc1ccc(/C=C2/N=C(SC3CCOC3=O)N(c3cccc(OC)c3)C2=O)cc1 (stereo not given)	10%	-6.9%	-16%	u	6%	-28%	2%	21%
14	CCOC(=O)c1c(CC(C)C)csc1/N=C/C1C(=O)CC(C)(C)CC1=O	-1%	x	14%[46.1 µM]	x	-9%	-10%	-6%	-3%[46.1 µM]
15	C/C(=N\NC(=O)c1ccccc1-n1cccc1)C1CC1	3%	-1.3%	6%	3%	-6%	-23%	-14%	21%
16	Cc1cccc(OCC(=O)O/N=C(\N)c2ccccn2)c1	-76%	2.3%	26%	-2%	-10%	43%[activator]	-1%	31%
17	Cc1ccccc1-c1nc2cc(Cl)ccc2o1	-7%	-1.8%	u	-7%	-24%	60%[activator]	u	0%
18	CSc1nc(=S)n(-c2ccccc2)c(C)c1C(C)=O	0%	x	x	x	-8%	11%	0%	x
19	CNC(=S)N(Cc1cccs1)Cc1cc2cc(OC)ccc2[nH]c1=O	5%	-2.5%	2%	0%	-18%	u	11%	u
20	COc1ccc(C(=O)NCC(=O)OCC(=O)N2N=C(c3ccc(Cl)cc3)CC2c2ccco2)cc1OC (stereo not given)	2%	x	u	x	12%	-26%	3%	3%
21	CCN(c1cccc(C)c1)S(=O)(=O)c1ccc(OC)c([N+](=O)[O-])c1	-3%	x	-26%	x	3%	-25%	1%	-7%[46.1 µM]
22	O=C(CSc1nnnn1C1CCCCC1)NCc1ccco1	1%	1.8%	7%	7%	-13%	-8%	1%	-4%
23	CCOc1ccc(C(=O)N2CCCCC2CCN2CCOCC2)cc1 (stereo not given)	x	1.5%	u	-6%	x	-9%	x	15%[46.1 µM]
24	COc1cccc(CNC(=O)C2CCN(S(=O)(=O)N3CCC(C)CC3)CC2)c1	-8%	1.2%	-3%[46.1 µM]	-9%	12%	-10%&-23%	x	x
25	Cc1nc(SCC(=O)O)c(C#N)c(-c2ccco2)c1C(=O)N(C)C	-2%	x	x	x	0%	-19%	0%	x
26	CC1(c2ccccc2)NC(=O)N(CC(=O)NCC2CCCO2)C1=O (stereo not given)	x	x	-1%	x	-35%	0%	3%	3%
27	Cc1ccc(C(=O)NCc2occc2C(=O)O)o1	5%	3.0%	-2%	-7%	-2%	-1%	2%	18%
28	Cc1c(C(=O)Nc2ccc(-c3nc4cc(Cl)ccc4o3)cc2)oc2ccccc12	x	0.8%	-13%[46.1 µM]	8%	x	19%	x	x
29	O=C(CC1S/C(=N/N=C/C=C/c2ccccc2)NC1=O)Nc1ccc(Cl)c(Cl)c1 (stereo not given)	8%	-0.9%	u	6.3µM*	-4%	-5%	-9%	-3%
30	O=C(N/N=C/c1coc2ccccc2c1=O)c1ccncc1	3%	x	25%[46.1 µM]	x	-3%	11%	5%	u
31	COC(=O)c1c(C)oc2ccc(N(C(C)=O)S(=O)(=O)c3ccccc3)cc12	-5%	x	u	x	2%	-16%	-1%	u
32	O=C(CSc1nncn1-c1ccccc1)Nc1ccc(F)cc1F	-2%	x	-4%	x	-21%	-1%	1%	0%[46.1 µM]
33	COc1ccc(N(Cc2ccco2)C(=O)c2ccccc2F)cc1OC	-32%	0.4%	-3%	-9%	4%	0%	1%	-15%
34	COc1ccc(OC)c(S(=O)(=O)Nc2ccc3c(c2)C(=O)OC3)c1	0%	x	5%[46.1 µM]	x	-16%	34%[activator]	-3%	u
35	CCOC(=O)CN1NC2(CCCCCC2)NC1=S	0%	x	x	x	12%	2%	3%	-8%
36	N#C/C(=C\c1ccc2c(c1)OCCO2)C(=O)NC1CCCCC1	-4%	-4.3%	13%	7%	1%	60%[activator]	u	25%
37	CCOc1ccc(S(=O)(=O)N2CCC(C(=O)OC(C)C(=O)N(C)C3CCCCC3)CC2)cc1 (stereo not given)	-5%	x	x	x	9%	u	24%	x
38	Cc1c(Cl)cccc1NC(=O)CCCn1nc(C)c2sc3ccccc3c2c1=O	x	-0.8%	-4%[46.1 µM]	-1%	x	-17%	x	-7%[46.1 µM]
39	CC(C)CNC(=S)N(CCCO)Cc1cc2cc3c(cc2[nH]c1=O)OCCO3	9%	x	x	x	-14%	7%	0%	x
40	CC(C)C1(C)N=C(c2nc3ccccc3cc2C(=O)O)NC1=O (stereo not given)	1%	3.0%	6%	-5%	41%	-1%	1%	15%&15%&15%
41	CCOc1ccccc1C(=O)NCC(c1cccs1)S(=O)(=O)c1ccc(F)c(C)c1 (stereo not given)	x	-1.8%	13%[46.1 µM]	-11%	x	-14%	x	x
42	CCNC(=S)NNC(=O)c1cccs1	-6%	3.0%	-5%	3%	4%	-21%	-1%	6%
43	Cc1ccc(S(=O)(=O)NCCC(C)C)cc1[N+](=O)[O-]	-7%	-4.8%	1%	-22%	12%	49%[activator]	-6%	7%
44	CC(C)NC(=S)NC(=O)/C=C/c1cccc2ccccc12	-2%	-5.0%	9%	2%	x	-23%	-1%	38%
45	CCOC(=O)Cc1csc(NC(=O)CSc2nnc(-c3ccc(C)cc3)o2)n1	-2%	2.3%	-7%	16%	9%	5%	-3%	2%
46	COC(=O)C1=CN(C2CC2)C=C(C(=O)OC)C1c1ccccc1OC	-5%	-23%	11%	u	10%	-21%	6%	2%
47	CC(=O)c1c(C)[nH]c(C(=O)OCC(=O)NCCC2=CCCCC2)c1C	x	x	1%	x	11%	u	-1%	u
48	CCOC(=O)Cc1cc(=O)n2[nH]c(-c3ccc(C)cc3)cc2n1	13%	-4.7%	-9%	-14%	7%	x	5%[6.58 µM]	3%
49	O=C(CN1C(=O)NC2(CCCC2)C1=O)Nc1nc2c(F)cc(F)cc2s1	x	x	-11%[46.1 µM]	x	-10%	9%	8%	12%
50	CCOC(=O)N1CCN(C(=O)COC(=O)Cc2ccc(Cl)cc2)CC1	5%	x	-6%	x	-8%	-22%	-3%	-14%[46.1 µM]
51	O=C(Nc1ccnn1C1CCN(C(=O)c2ccccc2C(F)(F)F)CC1)C1CC1	u	x	u	x	-8%	15%	1%	-1%
52	O=C(NCC1CCCO1)/C(=C/c1cn(-c2ccccc2)nc1-c1cccnc1)NC(=O)c1ccccc1 (stereo not given)	x	x	-22%[46.1 µM]	x	-5%	-21%	2%	-21%[46.1 µM]
53	Cc1ccc(C)c(S(=O)(=O)c2nnn3c2nc(N2CCCC2)c2sccc23)c1	x	-2.6%	u	u	x	6%	x	x
54	CCC(NC(=O)c1ccccc1NC(=O)c1ccco1)C(=O)O (stereo not given)	-16%	0.9%	23%	-6%	-7%	-4%	-2%	0%[46.1 µM]
55	COC(=O)c1ccc2c(=O)n(Cc3ccco3)c(SCC(=O)Nc3ccc(C)c(Cl)c3)nc2c1	-2%	6.5%	u	6.3µM*	-10%	-16%	-1%	u
56	COc1cccc(C(=O)Nc2ccc(Oc3cccc(C(F)(F)F)c3)nc2)c1	-2%	x	u	x	-25%	-23%	-2%	8.9µM*
57	Cc1cccc2c1-c1sc(C(=O)Nc3ccccc3C(N)=O)cc1CO2	x	-0.2%	x	2%	x	11%	x	u
58	Cc1ccc(CSCC(=O)N2CCN(c3ccc(F)cc3)CC2)cc1	-9%	-0.7%&-1.9%	u	16%&5%	0%	-9%&-17%	-6%	-9%&-9%
59	CCCc1ccccc1OCCNC(=O)c1cc(=O)n(C)c(=O)n1C	x	x	9%	x	17%	-20%	-5%	17%[46.1 µM]
60	COC(=O)c1c(NC(=O)c2ccnn2C)sc(C)c1C	x	x	u	x	-19%	-1%	x	-1%

(further entries)
entry	SMILES	NS1 function inh	Cruzain Triton	LASV entry inh	Cruzain noTriton	RE007 growth inh	2A StopGo	SARS PLpro yeast	MARV entry inh
61	OCCNC(=S)Nc1ccc(Oc2ccccc2)cc1	5%	x	x	x	-20%	-11%	0%	x
62	O=C(CN1C(=O)NC2(CCSC2)C1=O)NCc1ccccc1 (stereo not given)	5%	x	-4%[46.1 µM]	x	9%	5%	0%	0%[46.1 µM]
63	O=C(NC1CCCC1)C(Cc1ccccc1)n1cccc1 (stereo not given)	-2%	0.5%	x	2%	-6%	-6%	2%	x
64	CCc1nn(C(C)C(=O)N(C)Cc2ccccc2)c(=O)c2cc3occc3n12 (stereo not given)	13%	x	8%[46.1 µM]	x	-4%	17%	4%	1%[46.1 µM]
65	CCCc1cc(=O)[nH]c(N/N=C/C=C\c2ccccc2)n1	4%	x	-23%	x	-11%	-15%	-1%	u
